RN4220 kill – growth inhibition of S. aureus RN4220, primary screen, OD600 | 16 h | inhibition, % (concentration not given with the values) | actives 0.33% (n = 330,000);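 active means z-score of -3 or lower and OD600 up to 0.18 on both plates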;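 further: plate controls were untreated cells for no effect and reference antibiotic for full effect; stock transfer was 100 nL into about 80 µL; one replicate is shown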
Autofluor counter – counter-screen for toxin protease inhibitors: compound fluorescence; compound autofluorescence counterscreen, microsphere flow cytometry; stronger effect = higher value; fluorescence intensity (concentration not given with the values); actives 3.1% (n = 360,000);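 active means at least 3 SD above the mean of all compounds, about 16000 in these data; inconclusive means too few beads counted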;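 further: 100 nL of 1 mM stock went into each well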
PrP 5UTR inh – inhibition of PrP 5' UTR reporter expression; cell-based PrP 5' UTR mRNA reporter, plate reader; inhibition, % (test concentration not listed); actives 0.35% (n = 340,000); AID 488862, 2010;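 active means every replicate at 50% or more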;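 further: 0 = median of the neutral control wells; tested in H4 reporter cells; numbers are from one replicate; inactives centre near -14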
BJeLR viability – MLPCN primary cell-based screen for lethality selective to Ras in HRASV12 cells; BJeLR (HRASV12) viability, CellTiter-Glo ATP luminescence, 48 h; reference of the scale not given here; inhibition, % (test concentration not listed); actives 0.17% (n = 300,000);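 active means replicate mean above 50%; inconclusive means above 50% but judged a plate artefact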;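 further: 50 nL library stock added to about 25 µL; numbers are from one replicate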
Mtb hypoxia rep – PubChem AID 1159583. M. tuberculosis hypoxia-regulated fluorescent reporter, fluorescence. fluorescence inhibition, % (concentration not given with the values). actives 0.1% (n = 300,000);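 active means 35 to 45% if threefold the growth effect, above 45% if 1.5-fold the growth effect; inactive means the rest, general growth blockers included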;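 further: wells of about 50 µL received 100 nL stock; 0% = vehicle wells and 100% = reference inhibitor wells; whole bacteria with a GFP reporter of the hypoxia response; strong numbers were not always called active; many hits fall short of the cut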
ugtP null kill – growth inhibition of ugtP-null S. aureus, primary screen, RN4220 ugtP deletion, OD600. 16 h; some inactives read as strong as hits. growth inhibition, % (concentration not given with the values). actives 0.54% (n = 330,000). AID 1259309, 2017;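 active means z-score under -3 and OD600 up to 0.15 on both plates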;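 further: plate controls were untreated wells for no effect and antibiotic for full effect; wells of about 80 µL received 100 nL stock; the first replicate is given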
Mtb hypoxia rep growth – second read-out of Mtb hypoxia rep, no call of its own (marks repeat the call); growth inhibition, %; measured here: M. tuberculosis growth (absorbance);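 0% = vehicle and 100% = reference antibiotic; read after six days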
An asterisk follows results filed as active; ? = inconclusive; · = no result given. Compounds were not picked by outcome, and some 4% of all compounds hit somewhere here.

SMILES | RN4220 kill | Autofluor counter | PrP 5UTR inh | BJeLR viability | Mtb hypoxia rep | Mtb hypoxia rep growth | ugtP null kill
Cc1nn(CC(=O)O)c(C)c1C | 1.3 | 21501* | -10 | -4 | 5 | 8 | 1
CCOC(=O)c1sc(NC(=O)c2ccc(OC)cc2)nc1C | 4.8 | 4005 | -44 | -3 | 0 | 7 | 1
O=C(Nc1ccc(O)cc1)C1CC=CCC1 (configuration not stated) | 4.7 | 18689* | -30 | -9 | 4 | 9 | 0
Cc1cc(C(=O)N2CCN(c3ncccn3)CC2)cs1 | 3.7 | 9577 | -5 | -2 | 5 | 13 | 2
CC(=O)Nc1ccc(S(=O)(=O)N2CCn3cccc3C2C)cc1 (configuration not stated) | 6.7 | 4388 | -10 | · | 1 | 2 | 0
Cc1sc(NC(=O)c2ccccc2)c(C(c2ccc(Cl)cc2)N2CCN(CCO)CC2)c1C (configuration not stated) | -4.7 | 2407 | 0 | -2 | -10 | 6 | -43
CCC(NC(=O)c1ccc(C#CC2(O)CCCCC2)cc1)C(=O)O (configuration not stated) | 5.0 | 3434 | -4 | 7 | -2 | -2 | 9
COc1cc(/C=C/C(=O)Nc2ccc(S(=O)(=O)Nc3ncccn3)cc2)ccc1OCC#N | 2.4 | 5018 | -4 | · | 5 | 17 | -1
COCc1nnc(SCC(=O)Nc2cccc(Cl)c2C)n1-c1ccccc1 | 4.0 | 3442 | -15 | -4 | -3 | -1 | -3
CCOC(=O)c1cccc(NC(=O)c2ccc(N(C)C)cc2)c1 | 1.4 | 1995 | -7 | -11 | 2 | 8 | 12
Cc1cccc(C)c1NC(=O)c1cc2c(=O)c3ccccc3oc2nc1C(F)(F)F | 11 | 11142 | -25 | -4 | -10 | -2 | -19
O=C(O)c1cc2cc(OCc3ccccc3)ccc2[nH]1 | 4.9 | 10477 | -39 | -2 | 0 | 2 | -13
CCC(NS(=O)(=O)c1ccc2c(c1)NC(=O)C(C)C(=O)N2)c1cccs1 (configuration not stated) | 7.8 | 6505 | -8 | -19 | -4 | -1 | 3
O=C(CCN1C(=O)C2CCCCC2C1=O)N1CCN(S(=O)(=O)c2cccc(F)c2)CC1 (configuration not stated) | 4.6 | 5796 | -8 | -7 | 0 | 0 | 2
CC(CC(=O)Nc1ccc(-c2ccno2)cc1)n1cccn1 (configuration not stated) | 1.5 | 5991 | -6 | 3 | 1 | -2 | -2
Nc1nc2c(nc(SCc3ccccc3Br)n2[C@@H]2O[C@H](CO)[C@@H](O)[C@H]2O)c(=O)[nH]1 | 0.6 | 2881 | -15 | 2 | -10 | -7 | 3
C=CCn1nc(-c2ccccc2)c2c(C)onc2c1=O | 14 | 3263 | -38 | 2 | 1 | -1 | 8
CC1CCN(c2nc3c(c(=O)n(C)c(=O)n3C)n2Cc2ccccc2)CC1 | 0.8 | 7211 | -32 | -4 | -10 | -6 | 2
Cc1onc(-c2c(Cl)cccc2Cl)c1C(=O)NCCCN1CCOCC1 | 2.1 | 3752 | -21 | 8 | · | · | 7
Cc1ccc(C(=O)Nc2ccc(S(=O)(=O)N3CCc4ccccc43)cc2)o1 | 9.0 | 23775* | 8 | 7 | 9 | 3 | -15
CCn1cc([N+](=O)[O-])c(C(=O)Nc2ccc3c(c2)OCCO3)n1 | 4.9 | 12600 | -49 | 9 | 2 | 5 | 1
O=C(NCCc1ccccc1)C(=O)NCC1OCCN1S(=O)(=O)c1ccc2c(c1)OCCO2 (configuration not stated) | 0.7 | 5005 | -16 | 2 | -7 | 1 | -1
C=CCSc1nnc(-c2cc3c(-c4ccccc4)nn(C)c3s2)n1C | 4.4 | 4047 | -34 | -5 | · | · | -17
Cc1cc(/C=C2\C(=O)NC(=O)N(c3ccc(Br)cc3)C2=O)c(C)n1-c1cc(C(=O)O)cc(C(=O)O)c1 | · | 3824 | -12 | 4 | · | · | ·
CC(=O)Nc1ccc(S(=O)(=O)N2CCN(C(=O)c3ncoc3-c3ccc(F)cc3)CC2)cc1 | 2.7 | 3938 | 0 | -5 | -3 | -5 | -1
COc1ccc(S(=O)(=O)NCC2(N3CCOCC3)CCCCC2)cc1OC | 1.9 | ? | -4 | · | -10 | 4 | 0
COc1ccc(CNCCC2(Cc3ccccc3)CC(C)N(C)CC2C)cc1OC (configuration not stated) | 1.7 | 4997 | -12 | 2 | 9 | 10 | 7
O=C(C1CC1)N1CCc2sccc2C1c1ccc(Cl)cc1 (configuration not stated) | -2.8 | 4561 | -19 | 3 | 9 | -1 | 42
CCOC(=O)C(=NNc1ccccc1OC)N1CCCc2ccccc21 | -1.3 | · | · | · | 10 | -3 | 58
Cc1cc(Cl)c2oc(C(=O)N3CCCCC3CCN3CCCC3=O)c(C)c2c1 (configuration not stated) | 15 | 4103 | -6 | -3 | -3 | -1 | -3

The last 5 entries of the section above are carried over, then new ones follow:
SMILES | RN4220 kill | Autofluor counter | PrP 5UTR inh | BJeLR viability | Mtb hypoxia rep | Mtb hypoxia rep growth | ugtP null kill
COc1ccc(S(=O)(=O)NCC2(N3CCOCC3)CCCCC2)cc1OC | 1.9 | ? | -4 | · | -10 | 4 | 0
COc1ccc(CNCCC2(Cc3ccccc3)CC(C)N(C)CC2C)cc1OC (configuration not stated) | 1.7 | 4997 | -12 | 2 | 9 | 10 | 7
O=C(C1CC1)N1CCc2sccc2C1c1ccc(Cl)cc1 (configuration not stated) | -2.8 | 4561 | -19 | 3 | 9 | -1 | 42
CCOC(=O)C(=NNc1ccccc1OC)N1CCCc2ccccc21 | -1.3 | · | · | · | 10 | -3 | 58
Cc1cc(Cl)c2oc(C(=O)N3CCCCC3CCN3CCCC3=O)c(C)c2c1 (configuration not stated) | 15 | 4103 | -6 | -3 | -3 | -1 | -3
COCCNC(=O)c1cccc(OC2CCN(Cc3cccc(C(C)=O)c3)CC2)c1 | 4.4 | 4095 | -28 | -4 | -3 | 1 | 5
O=C(O)Cc1csc(Nc2cccc(Cl)c2)n1 | 7.8 | 2547 | -17 | -2 | 4 | 1 | -6
O=C(CN1CCCc2ccccc21)N/N=C/c1ccc(F)cc1F | · | 6784 | -12 | 0 | · | · | ·
COc1cccc(OCc2nnc(SC)n2C)c1 | -1.1 | 9561 | -28 | 0 | 3 | 2 | -7
CC1CN(C(=O)c2cccc(S(=O)(=O)N3CCOCC3)c2)CC(C)O1 (configuration not stated) | 0.9 | 9134 | 4 | 0 | 3 | 7 | 4
Cc1ccc(NC(=O)Cn2c(O)c(N=NS(=O)(=O)c3ccc(C)cc3)c3ccccc32)cc1 | · | 2638 | -6 | 10 | · | · | ·
Cc1ccc(S(=O)(=O)N2CCN(c3ncnc4ccccc34)CC2)cc1 | 7.1 | 3976 | 4 | · | 8 | 4 | 1
C=C1CCN([C@H](C(=O)O)C(C)C)S(=O)(=O)c2ccccc21 | · | 4149 | -25 | 15 | · | · | ·
N#CCCCSc1nnnn1-c1cccc(Cl)c1 | 2.6 | 4427 | -10 | 34 | · | · | 3
Cc1ccc(CN2CCN(Cc3c[nH]c4ccccc34)CC2CCO)o1 (configuration not stated) | 4.2 | 5016 | -26 | 0 | 8 | 7 | 3
CCNC(=O)c1sc(=S)n(CC)c1N | 7.0 | · | -1 | -1 | 12 | 6 | -1
CCC(CO)Oc1cc(NC(=O)c2cccc(C)c2)c2ncn(C(C)C)c2c1 (configuration not stated) | 3.8 | 3029 | 9 | · | 10 | 11 | 14
CC(NC(=O)c1ccccc1OC(F)F)c1ccc(-n2ccnc2)cc1 (configuration not stated) | 3.0 | 5378 | -6 | 4 | 4 | 7 | 1
COc1ccccc1N1CCN(C(=O)c2cc3cc(C)ccc3[nH]2)CC1 | 1.0 | 4234 | -11 | 6 | 0 | -1 | 7
CCOC(=O)C1CCN(S(=O)(=O)Cc2ccc(Cl)cc2)CC1 | 1.3 | 4672 | -16 | -11 | -1 | -8 | 4
CCC1C(=O)N=C(SCC(=O)Nc2nc3ccccc3s2)NC1=O (configuration not stated) | 1.4 | 2052 | -8 | 0 | 8 | 6 | 0
CCCc1cc(C(=O)Nc2nnc(C)s2)cs1 | 4.6 | 9476 | -88 | 4 | 0 | 6 | -7
Cc1cccc(N2CCN(C(=O)C3CCN(S(=O)(=O)c4c(C)noc4C)CC3)CC2C)c1 (configuration not stated) | 5.2 | 5138 | -14 | 5 | 3 | -1 | 7
CC(=NNC(=O)c1ccc(NS(=O)(=O)c2ccc(Br)cc2)cc1)c1cccnc1 | 5.5 | 3451 | -30 | · | 6 | 6 | 3
Cc1nn(C)c(Sc2ccccc2N)c1[N+](=O)[O-] | 3.6 | 2110 | -35 | 2 | 12 | 9 | 11
CCN(CC)C(=O)Cn1ccc(NC(C)=O)nc1=O | 1.8 | 3454 | -16 | 6 | -5 | -8 | 3
Cc1nnc(SCC(=O)Nc2cccc(Cl)c2)n1CC1CCCO1 (configuration not stated) | 3.1 | 5390 | -12 | -3 | 0 | 2 | 13
Nc1c(N=Nc2ccccc2F)c(=O)[nH]n1-c1ccccc1 | 18 | 3218 | -82 | -5 | 11 | 11 | 13
O=S(=O)(NC1CCN(S(=O)(=O)c2c(F)cccc2F)C1)c1ccc2c(c1)OCCO2 (configuration not stated) | 4.7 | 4096 | -25 | · | -2 | 1 | 2
CC(=O)Nc1ccc(S(=O)(=O)N2CCC(C(=O)NC3CC3)CC2)cc1 | -1.9 | 5232 | -15 | 8 | 8 | -1 | 6
CC(C)N(Cc1nccn1C)C(=O)CCc1nnc(CCCc2ccccc2)o1 | 4.0 | 2648 | -61 | -12 | 1 | 12 | 2
CC(=O)c1ccc(S(=O)(=O)Nc2cccc(-c3ccc4nncn4n3)c2)cc1 | 7.3 | 2879 | -34 | 5 | 7 | 0 | 12
CC(=NCCN1CCOCC1)C1=C(O)c2ccccc2C1=O | -8.7 | 3303 | -1 | 8 | 5 | 2 | -5
Cc1ccc(C(=O)Nc2ccc(N3CCN(C)CC3)nc2)cc1 | 1.6 | 4625 | -21 | 4 | 7 | 11 | 5
CC1CCc2c(sc3ncnc(NCCCOC(C)C)c23)C1 (configuration not stated) | 1.4 | 4519 | -10 | -1 | · | · | -7
Oc1ccc(N2CCN(c3nc(-c4cccs4)nc4ccccc34)CC2)cc1 | 18 | 4171 | 2 | 3 | 1 | 11 | 15
CCCCN1C(=O)Nc2ccccc2S1=O (configuration not stated) | 3.3 | 2465 | -27 | -6 | 1 | -1 | 5
Cc1ccccc1NC(=O)NNC(=O)OC(C)(C)C | 2.1 | 4295 | -22 | -5 | -4 | 5 | 7
COc1cccc(CNC(=O)CCC2CCCN(C/C=C/c3ccccc3OC)C2)c1 (configuration not stated) | -2.9 | 3998 | -13 | 5 | 10 | 3 | 0
CC(C)CCNc1c(-c2cccs2)nc2ccccn12 | 2.3 | 3754 | -1 | -5 | 0 | -3 | -3
CCN(c1ccc(NC(=O)COC(=O)CCC(=O)c2ccc(F)cc2)cc1)C(C)C | -0.1 | 2582 | -12 | 4 | · | · | 3
O=C(Oc1cc2oc(=O)c3c(c2cc1Cl)CCCC3)c1cccs1 | 6.6 | 2517 | 8 | -8 | 0 | 6 | -1
Cc1ccccc1C(=O)NC1CCN(CC(=O)Nc2ccc(Br)cc2)CC1 | · | 3891 | -31 | -3 | · | · | ·
O=C(CCNS(=O)(=O)c1ccc2[nH]c(=O)oc2c1)Nc1ccccc1 | 3.3 | 5336 | -16 | 5 | 9 | 1 | 7
CC(C)N(CCCNC(=O)Cn1c(=O)c2cccn2c2ccc(F)cc21)Cc1ccccc1 | 3.5 | 6535 | -24 | 6 | 11 | 0 | 9
COC(=O)c1ccc(OS(=O)(=O)c2ccc(NC(C)=O)cc2)cc1 | 16 | 2074 | -22 | -6 | -5 | 3 | -1
CCOC(=O)c1ccc(NC(=O)c2nc[nH]c2C(=O)NC(C)c2ccccc2)cc1 (configuration not stated) | -6.7 | · | · | · | -5 | -1 | 1
Cc1cc(Cl)c(S(=O)(=O)Nc2ccccn2)cc1OCC(N)=O | 0.7 | 2674 | -29 | -2 | · | · | 4
O=C(Nc1cccc(O)c1)c1cc(-c2ccccc2Cl)on1 | 2.7 | 3741 | 43 | 11 | 3 | -6 | 1
CCOC(=O)N1CCC(NC(=O)CCC(=O)N2CCOc3ccc(Cl)cc32)CC1 | -5.6 | 4373 | -22 | 3 | 5 | -4 | -1

Screening data deposited in PubChem BioAssay by several laboratories.
